Bioassay records deposited in PubChem BioAssay by National Center for Advancing Translational Sciences (NCATS).
miR-21 reporter: raises the signal of a miR-21 reporter | HeLa miR-21 FLuc reporter, luciferase, 48 h | Potency, µM (top dose mostly 38.3 µM), for the others: at the highest dose reporter change, positive = more light | 340,000 tested, under 10 active | AID 2288; active = well fitted rising curve with a large enough effect; inconclusive = small, poorly fitted or top-dose-only effect; inactive = no such curve, though single readings can be large or run the other way;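 also: % of control where 0% means no effect; miR-21 action dims this reporter so a rising signal means less miR-21 action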
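HeLa cells stably expressing CMV-driven firefly luciferase with a downstream miR-21 binding sequence, endogenously expressing miR-21, were treated with titrations (up to about 40uM final) for 48 hours at 37 degree Celsius. Luciferase luminescence was read after lysis.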
Rango-impB inh: prevents formation of the Rango-importin beta complex; Potency, µM (series often up to 92.2 µM), without a hit: at the top dose inhibition of complex formation; hit rate 0.031% among 340,000; Rango CFP/YFP FRET sensor + importin beta, 45 min; Q14974; active = rising FRET ratio curve, often small or poorly fitted; inconclusive = mostly compound fluorescence or quenching in the first reads; inactive = flat curves in all reads;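 also: potency is read from the fitted curve at half-maximal effect; 0% = DMSO wells and 100% = buffer wells lacking importin beta; nearly all actives have a fitted effect of over 15% in size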
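FRET biosensor (snurportin 1 IBB flanked by EYFP and cerulean), 50 nM, with compound 5 min, then 0.125 microM importin beta in PBS, 1 mM DTT, 0.02% Tween-20, 0.1% BSA. CFP/YFP ratio read after 45 min at room temperature; pre-read flags interference.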
GLA inh pH 4.5: alpha-galactosidase A (human) inhibition, pH 4.5. P06280. purified enzyme, 4-MU-alpha-Gal fluorescence, pH 4.5. activity change, negative = inhibition, % at 105 µM. 230,000 tested, under 10 active. AID 1467; inconclusive = small, poorly fitted or top-dose-only inhibition, or a rising curve; inactive = flat fitted curve, though single readings scatter; no compound was filed as active;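 also: 0% = full activity with enzyme and -100% = basal without enzyme; dose as in the result columns while the protocol names 77 µM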
Target sequence (P06280 whole entry, looked up): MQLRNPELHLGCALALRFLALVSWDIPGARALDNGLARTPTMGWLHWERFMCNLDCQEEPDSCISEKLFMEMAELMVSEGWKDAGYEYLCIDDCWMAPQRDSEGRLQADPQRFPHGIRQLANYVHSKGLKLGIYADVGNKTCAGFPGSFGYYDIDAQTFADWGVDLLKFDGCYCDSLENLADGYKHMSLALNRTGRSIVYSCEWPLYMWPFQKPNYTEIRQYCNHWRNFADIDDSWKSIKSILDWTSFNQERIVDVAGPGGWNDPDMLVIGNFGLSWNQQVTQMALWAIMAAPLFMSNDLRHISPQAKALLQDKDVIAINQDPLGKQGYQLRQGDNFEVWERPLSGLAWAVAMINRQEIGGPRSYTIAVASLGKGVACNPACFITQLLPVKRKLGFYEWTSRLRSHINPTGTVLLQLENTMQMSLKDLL
Rango release inh: inhibitors of RanGTP-induced Rango-importin beta complex dissociation; O95149+P62826; Biochemical FRET Rango-importin beta, RanGTP-induced dissociation; Potency, µM (titrated, usually from 46.1 µM), without a hit: at the top dose activity change, negative = inhibition; hit rate 0.071% among 340,000; AID 540253; active means falling FRET ratio curve, often poorly fitted, with flat reads before Ran was added; inconclusive means other falling curves, or compound fluorescence or quenching; inactive means flat or rising ratio curve;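 also: potency is read from the fitted curve at half-maximal effect; % of control where 0% means no effect; nearly all actives have a fitted effect of over 45% in size; -100% = wells without RanGTP and RCC1; the record marks most hits as doubtful in a second field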
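Compounds preincubate 5 min with complex of recombinant Rango and importin beta in PBS with 1 mM DTT. Ran (0.6 uM) loaded with 2 mM GTP plus 0.2 uM RCC1 starts dissociation; FRET is recorded 45 min later.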
* marks the source's active call; other numbers are inactive results; ? = inconclusive; / = no result given.

Values run as follows: miR-21 reporter, Rango-impB inh, GLA inh pH 4.5, Rango release inh
> COc1cccc(C2/C(=C(/O)c3ccc4c(c3)CC(C)O4)C(=O)C(=O)N2CCCn2ccnc2)c1 (stereo unspecified)
    -3%, 2.2%, /, 25%
> COc1ccc(CN(CC2CCCO2)C(=O)c2cc3sccc3n2C)c(OC)c1 (stereo unspecified)
    -1%, 1.2%, -1, -4%
> O=C(OCC(=O)N1CCCc2ccccc21)c1cccc(S(=O)(=O)N2CCc3ccccc32)c1
    -3%, -3.3%, -16, -14%
> Clc1ccc(C2=Nn3c(nnc3-c3cccs3)SC2)cc1
    -5%, -0.3%, -6, 6%
> Cc1cc(C)nc(Nc2ccc(N3CCCC3)cc2)n1
    -34%, 2.0%, -10, 17%
> Cc1ccc(S(=O)(=O)NCC(=O)N(CC(=O)NCc2ccc(F)cc2)CC2CCCO2)cc1 (stereo unspecified)
    2%, -0.1%, /, 6%
> CN(C)C=NC(=O)c1[nH]c2ccc(Cl)cc2c1-c1ccccc1
    28%, 5.6%, /, 2%
> COc1ccccc1C1OC2=C(Nc3ccc([N+](=O)[O-])cc3N2)C1=O (stereo unspecified)
    10%, 1.0%, -1, -19%
> Cc1ccccc1NS(=O)(=O)c1cc(C(=O)N2CCc3ccccc3C2)ccc1C
    5%, ?, 5, 2%
> CCc1nn(C)c(N)c1C
    1%, 6.8%, 3, 2%
> O=[N+]([O-])c1ccccc1OCCNCc1ccccc1
    -23%, 3.0%, /, -7%
> COC(=O)C1=C(C)NC(C)=C(C(=O)OC)C1c1cc2ccc(C)cc2[nH]c1=O
    15%, ?, -3, -14%
> Nc1nnn(CC(=O)N/N=C/c2ccco2)n1
    -2%, -5.3%, -1, 4%
> CCOC(=O)c1ccc(NC(=O)CSc2nnc(C)n2-c2ccccc2)cc1
    0%, -0.8%, 6, 11%
> COc1ccc(NC(=O)NCCN2CCN(c3cc(OC)ccc3OC)CC2)cc1
    -2%, 2.9%, /, 48%
> Cc1cc(-c2ccccc2)nc(Nc2nc3c(C)cccc3c(=O)[nH]2)n1
    /, -1.2%, /, -13%
> Cc1ccc(-n2ncc3c2CCCC3NC(=O)CCN2CCCC2=O)cc1C (stereo unspecified)
    -5%, -0.8%, /, 10%
> O=C1CCN(C(=O)Nc2ccccc2)N1
    -14%, -0.4%, -1, -16%
> NC(=O)CC(NC(=O)c1ccc(Br)cc1)c1ccc(N2CCN(c3ccccn3)CC2)c([N+](=O)[O-])c1 (stereo unspecified)
    0%, 7.5%, -3, 18%
> CCn1cc(CN2CCC(n3nccc3NC(=O)C3CCCC3)CC2)cn1
    1%, 4.5%, /, -5%
> Cc1noc(/C=C/N(C)C)c1S(=O)(=O)N1CCCC(C(=O)NCc2ccco2)C1 (stereo unspecified)
    0%, ?, -3, -11%
> CC1Cc2cc(/C=C3/SC(=S)N(C)C3=O)ccc2O1 (stereo unspecified)
    -10%, 0.4%, 1, 1%
> N#Cc1cc(-c2ccccc2)oc1/N=C/c1ccccc1O
    -21%, -1.5%, 3, -11%
> COc1ccc(-c2nc(N)nc(C)c2-c2ccc(Cl)cc2)c(O)c1
    5%, -3.1%, /, 21%
> CCOc1ccc(NC(=O)CCN2CCN(c3ccccc3)CC2)cc1
    -4%, 3.1%, -3, 10%
> S=c1[nH]nc(-c2ccccc2Cl)n1CC1CCCO1 (stereo unspecified)
    1%, -0.7%, -2, -5%
> O=C(Cn1ncc(Cl)c(Cl)c1=O)NC(=O)NC1CCCCC1
    /, -2.7%, /, -6%
> CN(C(=O)COC(=O)c1cccnc1Cl)C1CCCCC1
    /, 0.2%, /, ?
> Cc1nnc(N2CCCC(C(=O)Nc3cc(F)ccc3F)C2)c2nn(-c3ccccc3)c(C)c12 (stereo unspecified)
    ?, 2.2%, /, 7%
> CCOc1ccc(C(=O)N[C@H](C(=O)Nc2cccc(S(=O)(=O)N3CCOCC3)c2)C(C)C)cc1
    /, -1.1%, /, 0%
> CN(C)/C=C(\C#N)S(=O)(=O)c1ccccc1
    2%, 1.3%, 4, 1%
> O=C(CNCC1CCCO1)N1CCN(S(=O)(=O)c2ccc3ccccc3c2)CC1 (stereo unspecified)
    -5%, -0.3%, 3, -6%
> COc1ccc(-c2[nH]ncc2-c2csc(C)n2)c(O)c1
    -1%, 0.2%, 6, 4%
> Cc1ccc(CNC(=O)c2cccc3c2C(=O)c2ccc(N4CCC(C)CC4)cc2S3(=O)=O)cc1
    /, ?, /, ?
> c1ccc(CC2CCN(c3nc4ccccc4n4cnnc34)CC2)cc1
    0%, -0.2%, -3, 9%
> COc1cc(NC(=O)CCCC(=O)OCC(F)(F)C(F)F)nc(OC)n1
    -6%, -5.9%, -6, -9%
> COc1cc(C(=O)OCc2cccc(OC)c2OC)ccc1OCC(=O)N1CCOCC1
    /, ?, /, 19%
> Cc1onc(-c2c(Cl)cccc2Cl)c1C(=O)N=S(C)(=O)c1ccccc1 (stereo unspecified)
    -1%, -4.7%, -6, -8%
> COc1ccc(CNCC(O)COc2cccc3c2OC(C)(C)C3)cc1 (stereo unspecified)
    16%, -1.0%, -9, 1%
> CC1CCCCN1S(=O)(=O)c1coc(C(N)=O)c1 (stereo unspecified)
    -6%, ?, -2, -2%
> CCOc1ccc(/C=C(\C#N)C(=O)c2c(C)[nH]c3ccccc23)cc1OC
    0%, -2.9%, -7, -1%
> Cc1ccc(S(=O)(=O)Cc2ccc(C(=O)N3CCN(c4ccccn4)CC3)o2)cc1
    10%, 2.1%, 5, -20%
> Cc1ccc(C)c(OCCC(=O)NNC(=O)c2ccncc2)c1
    /, -0.1%, /, -19%
> Cc1ccsc1C(=O)N(c1nc2ccccc2s1)c1c(C)cccc1C
    -2%, -2.9%, 0, 8%
> CCNc1nc(NCC)n2c(SCC(=O)c3ccc(C(C)C)cc3)nnc2n1
    -3%, -1.1%, 9, -4%
> O=Nc1c2nc3ccccc3n(O)c-2c2ccccc12
    -48%, /, 0, /
> Cc1c(C(C)C)c(=O)n(-c2ccc(S(=O)(=O)NCc3ccccc3)cc2)n1C
    22%, 1.2%, -4, 10%
> NCCc1nnc(SCC(N)=O)o1
    -2%, 0.9%, 3, 9%
> Cc1ccc(S(=O)(=O)Nc2cc(C(=O)O)ccc2N2CCCCC2)cc1
    -2%, 4.0%, -18, 1%
> O=C(NNS(=O)(=O)c1ccc(F)cc1)c1ccccc1F
    1%, 0.1%, /, 17%
> CCn1c(SCC(=O)N/N=C/c2cc(OC)c(OC)c(OC)c2)nc2ccccc21
    11%, 3.1%, 7, -7%
> Cc1cccc(OCc2nnc(SCC(=O)N3c4ccccc4Sc4ccc(Cl)cc43)o2)c1
    8%, 0.6%, -21, -15%
> CC1Cc2ccccc2N1C(=O)c1ccc2snnc2c1 (stereo unspecified)
    -1%, 0.1%, 2, -10%
> CCc1ccccc1NC(=O)CNC(=O)c1cccc(S(=O)(=O)N2CCN(Cc3ccccc3)CC2)c1
    /, 5.3%, /, -24%
> O=C(CSc1nc2c(oc3ccccc32)c(=O)n1CC1CCCO1)NCc1ccccc1 (stereo unspecified)
    /, 3.4%, /, -5%
> Cc1ccc(OCCn2c(C3CC(=O)N(Cc4ccccc4)C3)nc3ccccc32)cc1 (stereo unspecified)
    10%, -0.7%, -20, -1%
> CC(NS(=O)(=O)c1ccc2ccccc2c1)c1ccccn1 (stereo unspecified)
    /, -2.7%, /, 9%
> Cc1cccc(C(C)C)c1NC(=O)CSc1nncn1C
    -1%, 0.5%, 6, -10%
> Cc1onc(-c2c(F)cccc2Cl)c1C(=O)c1ccccc1O
    25%, 0.0%, -5, -1%
> CCOc1cc(NC(=O)c2ccco2)c(OCC)cc1NC(=O)CCc1ccccc1OC
    15%, -3.0%, 3, -7%

Further records.
SMILES	miR-21 reporter	Rango-impB inh	GLA inh pH 4.5	Rango release inh
COc1ccc([N+](=O)[O-])cc1NC(=O)COC(=O)c1ccccn1	1%	-1.3%	3	-9%
CCc1cccc(CC)c1-n1c(SCc2cc(=O)n3ccsc3n2)nnc1-c1cccnc1	-12%	4.9%	-1	4%
CCN(C[C@H]1N[C@@](CC)(C(=O)OC)[C@H]2C(=O)N(Cc3ccccc3)C(=O)[C@@H]12)C(=O)Nc1ccc(OC)cc1	/	-2.7%	/	11%
CCOC(=O)CSc1ncnc2c1cnn2-c1ccccc1	-9%	-1.1%	7	17%
CC1CCCC(C)N1C(=O)Cn1c(SCC(=O)Nc2ccc3c(c2)OCO3)nc2ccccc21 (stereo unspecified)	0%	1.9%	4	9%
O=C(NCC1CCCO1)c1ccc2c(=O)n(CC3CCCO3)c(SCC(=O)N3CCCC3)nc2c1 (stereo unspecified)	0%	-0.1%	16	-2%
CCOC(=O)N1CCN(C(=O)CN(C2CCCCC2)S(=O)(=O)c2ccc(Cl)cc2)CC1	1%	1.1%	3	13%
C=CCC[C@H](Cc1ccc(F)cc1)C(=O)OC[C@H](Cc1c[nH]c2ccccc12)NC(=O)[C@@H](CC=C)CC(=O)NCCO	/	4.1%	/	7%

Part of the list above, with values ahead of the structure:
miR-21 reporter	Rango-impB inh	GLA inh pH 4.5	Rango release inh	SMILES
-1%	0.5%	6	-10%	Cc1cccc(C(C)C)c1NC(=O)CSc1nncn1C
25%	0.0%	-5	-1%	Cc1onc(-c2c(F)cccc2Cl)c1C(=O)c1ccccc1O
15%	-3.0%	3	-7%	CCOc1cc(NC(=O)c2ccco2)c(OCC)cc1NC(=O)CCc1ccccc1OC
1%	-1.3%	3	-9%	COc1ccc([N+](=O)[O-])cc1NC(=O)COC(=O)c1ccccn1
-12%	4.9%	-1	4%	CCc1cccc(CC)c1-n1c(SCc2cc(=O)n3ccsc3n2)nnc1-c1cccnc1
/	-2.7%	/	11%	CCN(C[C@H]1N[C@@](CC)(C(=O)OC)[C@H]2C(=O)N(Cc3ccccc3)C(=O)[C@@H]12)C(=O)Nc1ccc(OC)cc1
-9%	-1.1%	7	17%	CCOC(=O)CSc1ncnc2c1cnn2-c1ccccc1
0%	1.9%	4	9%	CC1CCCC(C)N1C(=O)Cn1c(SCC(=O)Nc2ccc3c(c2)OCO3)nc2ccccc21 (stereo unspecified)
0%	-0.1%	16	-2%	O=C(NCC1CCCO1)c1ccc2c(=O)n(CC3CCCO3)c(SCC(=O)N3CCCC3)nc2c1 (stereo unspecified)
1%	1.1%	3	13%	CCOC(=O)N1CCN(C(=O)CN(C2CCCCC2)S(=O)(=O)c2ccc(Cl)cc2)CC1
/	4.1%	/	7%	C=CCC[C@H](Cc1ccc(F)cc1)C(=O)OC[C@H](Cc1c[nH]c2ccccc12)NC(=O)[C@@H](CC=C)CC(=O)NCCO

Additional records follow.
SMILES	miR-21 reporter	Rango-impB inh	GLA inh pH 4.5	Rango release inh
C=CCn1c(-c2ccncc2)n[nH]c1=S	0%	12%	-1	-7%
O=C(c1ccc2c(c1)OCO2)N(CC1CCCO1)C1(C(=O)NC2CCCCC2)CCCCC1 (stereo unspecified)	4%	0.4%	5	3%
CCN(CC(=O)Nc1ccccc1OC)C(=O)CSCC(=O)Nc1cccc(C)c1	/	-1.6%	/	5%
O=C(CN1CCOCC1)NCCNC(=O)CN1CCOCC1	-6%	-0.3%	-3	-4%
CCOc1ccc(C(=O)Nc2cccc(-c3cc4ccccc4oc3=O)c2)cc1[N+](=O)[O-]	15%	1.3%	1	-13%
COc1cc(OC)cc(C(=O)Nc2ccc3nc4n(c(=O)c3c2)CCCC4)c1	-51%	-1.8%	/	10%
CN(C)C(=O)N1CCN(C(=O)N(C)C)CC1	0%	-0.4%	-3	4%
N#Cc1ccsc1NC(=O)c1cccc(-n2cnnn2)c1	-19%	-1.0%	/	-19%
COc1cc(SC#N)ccc1N=Cc1c(C)[nH]n(-c2cccc3ccccc23)c1=O	-1%	?	-6	?
Cc1ccc(NC(=O)CC2S/C(=N/N=C/c3c[nH]c4ccccc34)NC2=O)cc1 (stereo unspecified)	-35%	1.3%	-2	0%
C=CCn1c(C)cc(-c2csc(NC)n2)c1C	-1%	?	2	-12%

A portion of the library; count on the stated rates, not on these rows.
